# Compound activity (PubChem)
# A1 apoptosis 2: A1 inhibitors via caspase activation, primary screen, cell-based, luminescence, HTS, two replicates; MEF A1-2A-BIM cells, caspase-Glo luminescence, 3 h; percent of clofoctol response, DMSO zero; caspase activation, % (no concentration beside the values); 24,000 tested, under 10 active; AID 2465, 2010; in the data active = caspase activation above about 5.9%;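 note: wells of about 30 µL received 50 nL stock; the first replicate is given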
#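 System: mouse embryonic fibroblasts co-expressing A1 and BIM (A1-2A-BIM), primed for A1 dependence; amount: 2500 cells/well; doses: 50 nL pinned compound; schedule: cells settled overnight, compound exposure 3 h at 37 °C, 5% CO2; detection: Caspase-Glo 3/7 luminescence, 1 h at room temperature; read-out: Caspase-3/7 activation, seen as rise in luminescence signal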
# An asterisk follows results filed as active. This is a subset. The share of hits here may be higher or lower than overall.
structure,A1 apoptosis 2
C[C@H](CO)N1C[C@H](C)[C@@H](CN(C)S(=O)(=O)c2ccc(F)cc2)Oc2ccc(NC(=O)c3ccncc3)cc2C1=O,0.3
C[C@@H]1CCCCO[C@@H](CN(C)S(=O)(=O)c2cn(C)cn2)[C@H](C)CN([C@H](C)CO)C(=O)c2cc(NC(=O)CCC(F)(F)F)ccc2O1,0.5
C[C@@H]1CCCCO[C@H](CN(C)S(=O)(=O)c2cn(C)cn2)[C@@H](C)CN([C@H](C)CO)C(=O)c2cc(NC(=O)Nc3ccc(C(F)(F)F)cc3)ccc2O1,0.3
COc1ccc(S(=O)(=O)Nc2ccc3c(c2)C(=O)N([C@@H](C)CO)C[C@H](C)[C@@H](CN(C)S(=O)(=O)c2ccccc2)OCCCC[C@@H](C)O3)cc1,-0.8
C[C@H](CO)N1C[C@H](C)[C@@H](CN(C)S(=O)(=O)c2cccs2)Oc2c(NS(=O)(=O)c3cn(C)cn3)cccc2C1=O,-0.7
CNC[C@@H]1OCCCC[C@H](C)Oc2ccc(NS(=O)(=O)c3cccs3)cc2C(=O)N([C@@H](C)CO)C[C@@H]1C,-0.7
C[C@@H]1CN([C@H](C)CO)C(=O)c2cc(NC(=O)Nc3ccc4c(c3)OCO4)ccc2O[C@H]1CN(C)S(=O)(=O)c1ccccc1,0.8
C[C@@H]1CCCCO[C@@H](CN(C)Cc2ccc(C(F)(F)F)cc2)[C@@H](C)CN([C@@H](C)CO)C(=O)c2cc(NS(C)(=O)=O)ccc2O1,0.7
C[C@@H]1CN([C@H](C)CO)C(=O)c2cc(NC(=O)c3ccccc3)ccc2O[C@@H](C)CCCCO[C@@H]1CN(C)C(=O)Cc1ccccc1,1.5
Cc1noc(C)c1S(=O)(=O)Nc1ccc2c(c1)C(=O)N([C@H](C)CO)C[C@H](C)[C@H](CN(C)S(=O)(=O)c1ccc(Cl)cc1)O2,1.2
C[C@H](CO)N1C[C@H](C)[C@H](CN(C)S(=O)(=O)c2ccc(F)cc2)Oc2ccc(NC(=O)Nc3ccc(F)cc3)cc2C1=O,-0.4
C[C@H](CO)N1C[C@H](C)[C@H](CN(C)S(=O)(=O)c2ccccc2)Oc2ccc(NS(=O)(=O)c3cccs3)cc2C1=O,0.1
C[C@@H]1CCCCO[C@H](CN(C)C(=O)Nc2ccc3c(c2)OCO3)[C@@H](C)CN([C@@H](C)CO)C(=O)c2cc(NC(=O)CCC(F)(F)F)ccc2O1,0.3
COc1ccc(NC(=O)N(C)C[C@H]2Oc3ccc(NS(=O)(=O)c4ccccc4)cc3C(=O)N([C@H](C)CO)C[C@@H]2C)cc1,0.2
C[C@H](CO)N1C[C@H](C)[C@H](CN(C)C)Oc2c(NS(C)(=O)=O)cccc2C1=O,-0.4
C[C@@H]1CN([C@H](C)CO)C(=O)c2cccc(NC(=O)Nc3ccccc3)c2O[C@H]1CN(C)Cc1ccc(C(=O)O)cc1,-0.1
Cc1noc(C)c1S(=O)(=O)N(C)C[C@H]1OCc2cnnn2CCCC(=O)N([C@H](C)CO)C[C@@H]1C,1.1
Cc1cc(C(=O)Nc2cccc3c2O[C@@H](CN(C)C(=O)Nc2ccc(F)cc2)[C@@H](C)CN([C@H](C)CO)C3=O)n(C)n1,0.4
C[C@@H]1CN([C@@H](C)CO)C(=O)Cc2cc(NC(=O)Nc3ccc4c(c3)OCO4)ccc2O[C@@H]1CN(C)Cc1ccccc1,-0.5
Cc1noc(C)c1NC(=O)N(C)C[C@@H]1OCCCC[C@@H](C)Oc2ccc(NS(=O)(=O)c3ccccc3)cc2C(=O)N([C@@H](C)CO)C[C@H]1C,-1.2
Cc1ccc(S(=O)(=O)Nc2cccc3c2O[C@@H](CN(C)Cc2ccc(C(F)(F)F)cc2)[C@@H](C)CN([C@H](C)CO)C3=O)cc1,-0.9
COc1ccc(S(=O)(=O)N(C)C[C@@H]2Oc3c(NC(=O)Nc4c(C)noc4C)cccc3C(=O)N([C@H](C)CO)C[C@H]2C)cc1,1.1
C[C@@H]1CCCCO[C@H](CN(C)Cc2ccncc2)[C@H](C)CN([C@@H](C)CO)C(=O)c2cc(NC(=O)Nc3ccccc3)ccc2O1,1.4
C[C@@H]1CN([C@@H](C)CO)C(=O)c2cccc(NC(=O)c3ccncc3)c2O[C@H]1CN(C)C(=O)Nc1ccc(C(F)(F)F)cc1,-0.1
C[C@@H]1CN([C@@H](C)CO)C(=O)Cc2cc(N(C)C)ccc2O[C@H]1CN(C)Cc1ccncc1,-0.8
C[C@@H]1CCCCO[C@@H](CN(C)C(=O)Nc2ccc(F)cc2)[C@@H](C)CN([C@H](C)CO)C(=O)c2cc(NS(=O)(=O)c3ccc(Cl)cc3)ccc2O1,-0.4
Cc1noc(C)c1NC(=O)Nc1ccc2c(c1)CC(=O)N([C@@H](C)CO)C[C@H](C)[C@H](CN(C)CC1CCCCC1)O2,-0.4
CNC[C@H]1Oc2ccc(NS(=O)(=O)c3c(C)noc3C)cc2C(=O)N([C@H](C)CO)C[C@H]1C,0.9
C[C@H]1CN([C@@H](C)CO)C(=O)c2cc(NS(=O)(=O)c3ccc(F)cc3)ccc2O[C@H]1CN(C)CC1CCCCC1,0.0
C[C@H](CO)N1C[C@H](C)[C@@H](CN(C)Cc2ccc(C(F)(F)F)cc2)Oc2ccc(NC(=O)NC3CCCCC3)cc2C1=O,-1.0

# Sorted by length of the SMILES (low to high): some entries from above.
structure,A1 apoptosis 2
Cc1noc(C)c1S(=O)(=O)N(C)C[C@H]1OCc2cnnn2CCCC(=O)N([C@H](C)CO)C[C@@H]1C,1.1
CNC[C@@H]1OCCCC[C@H](C)Oc2ccc(NS(=O)(=O)c3cccs3)cc2C(=O)N([C@@H](C)CO)C[C@@H]1C,-0.7
Cc1noc(C)c1NC(=O)Nc1ccc2c(c1)CC(=O)N([C@@H](C)CO)C[C@H](C)[C@H](CN(C)CC1CCCCC1)O2,-0.4
C[C@H](CO)N1C[C@H](C)[C@@H](CN(C)Cc2ccc(C(F)(F)F)cc2)Oc2ccc(NC(=O)NC3CCCCC3)cc2C1=O,-1.0
C[C@H](CO)N1C[C@H](C)[C@@H](CN(C)S(=O)(=O)c2cccs2)Oc2c(NS(=O)(=O)c3cn(C)cn3)cccc2C1=O,-0.7
Cc1cc(C(=O)Nc2cccc3c2O[C@@H](CN(C)C(=O)Nc2ccc(F)cc2)[C@@H](C)CN([C@H](C)CO)C3=O)n(C)n1,0.4
C[C@@H]1CN([C@H](C)CO)C(=O)c2cc(NC(=O)Nc3ccc4c(c3)OCO4)ccc2O[C@H]1CN(C)S(=O)(=O)c1ccccc1,0.8
C[C@@H]1CCCCO[C@H](CN(C)Cc2ccncc2)[C@H](C)CN([C@@H](C)CO)C(=O)c2cc(NC(=O)Nc3ccccc3)ccc2O1,1.4
Cc1ccc(S(=O)(=O)Nc2cccc3c2O[C@@H](CN(C)Cc2ccc(C(F)(F)F)cc2)[C@@H](C)CN([C@H](C)CO)C3=O)cc1,-0.9
Cc1noc(C)c1S(=O)(=O)Nc1ccc2c(c1)C(=O)N([C@H](C)CO)C[C@H](C)[C@H](CN(C)S(=O)(=O)c1ccc(Cl)cc1)O2,1.2
C[C@@H]1CCCCO[C@H](CN(C)C(=O)Nc2ccc3c(c2)OCO3)[C@@H](C)CN([C@@H](C)CO)C(=O)c2cc(NC(=O)CCC(F)(F)F)ccc2O1,0.3
C[C@@H]1CCCCO[C@@H](CN(C)C(=O)Nc2ccc(F)cc2)[C@@H](C)CN([C@H](C)CO)C(=O)c2cc(NS(=O)(=O)c3ccc(Cl)cc3)ccc2O1,-0.4
COc1ccc(S(=O)(=O)Nc2ccc3c(c2)C(=O)N([C@@H](C)CO)C[C@H](C)[C@@H](CN(C)S(=O)(=O)c2ccccc2)OCCCC[C@@H](C)O3)cc1,-0.8
C[C@@H]1CCCCO[C@H](CN(C)S(=O)(=O)c2cn(C)cn2)[C@@H](C)CN([C@H](C)CO)C(=O)c2cc(NC(=O)Nc3ccc(C(F)(F)F)cc3)ccc2O1,0.3

# (next part)
structure,A1 apoptosis 2
C[C@@H]1CN([C@@H](C)CO)C(=O)c2cccc(NC(=O)NC3CCCCC3)c2O[C@H]1CN(C)C(=O)Nc1ccc2c(c1)OCO2,-1.1
C[C@@H]1CCCCO[C@@H](CN(C)Cc2ccc(Cl)c(Cl)c2)[C@@H](C)CN([C@H](C)CO)C(=O)c2cc(NC(=O)CCCN(C)C)ccc2O1,-1.3
C[C@H](CO)N1C[C@H](C)[C@H](CN(C)C(=O)Nc2cccc3ccccc23)OCCCC[C@H](C)Oc2ccc(NS(=O)(=O)c3cn(C)cn3)cc2C1=O,-0.4
O=C1O[C@@H](c2ccccc2)[C@@H](c2ccccc2)N2[C@@H](c3ccc(O)cc3)[C@]3(C(=O)Nc4ccccc43)[C@@H](C(=O)O)[C@H]12,0.8
COc1ccc(CN(C)C[C@H]2Oc3c(NS(=O)(=O)c4ccc(OC)cc4)cccc3C(=O)N([C@@H](C)CO)C[C@@H]2C)cc1,-0.6
Cc1noc(C)c1S(=O)(=O)Nc1cccc2c1O[C@@H](CN(C)Cc1ccc(-c3ccccc3)cc1)[C@@H](C)CN([C@@H](C)CO)C2=O,1.0
C[C@@H]1CN([C@H](C)CO)C(=O)c2cccc(NS(=O)(=O)c3ccc(F)cc3)c2O[C@@H]1CN(C)C(=O)Nc1ccccc1,2.1
CC(C)NC(=O)N(C)C[C@@H]1Oc2ncc(C#CCN(C)C)cc2C(=O)N([C@H](C)CO)C[C@@H]1C,0.6
CC(C)NC(=O)N(C)C[C@@H]1Oc2c(NC(=O)c3nc4ccccc4s3)cccc2C(=O)N([C@H](C)CO)C[C@@H]1C,-0.8
C[C@H]1CN([C@@H](C)CO)C(=O)Cc2cc(N(C)C)ccc2O[C@@H]1CN(C)CC1CC1,-1.2
C[C@@H]1CCCCO[C@@H](CN(C)C(=O)c2ccncc2)[C@H](C)CN([C@H](C)CO)C(=O)c2cc(NC(=O)c3ccncc3)ccc2O1,-0.8
CC(C)NC(=O)N(C)C[C@H]1OCCCC[C@H](C)Oc2ccc(NC(=O)Cc3ccccc3)cc2C(=O)N([C@@H](C)CO)C[C@H]1C,-0.7
C[C@H](CO)N1C[C@H](C)[C@H](CN(C)C(=O)Cc2ccccc2)OCCCC[C@H](C)Oc2ccc(NS(C)(=O)=O)cc2C1=O,0.1
CNC[C@@H]1Oc2ccc(NC(=O)CCC(F)(F)F)cc2C(=O)N([C@@H](C)CO)C[C@@H]1C,-1.1
C[C@H]1CN([C@@H](C)CO)C(=O)c2cc(NC(=O)C3CC3)ccc2O[C@H]1CN(C)Cc1ccccc1,0.5
COc1ccc(NC(=O)N(C)C[C@H]2Oc3c(NS(=O)(=O)c4c(C)noc4C)cccc3C(=O)N([C@@H](C)CO)C[C@H]2C)cc1,0.8
C[C@H]1CCCCO[C@@H](CN(C)C(=O)NC2CCCCC2)[C@@H](C)CN([C@@H](C)CO)C(=O)c2cc(NS(=O)(=O)c3ccc(F)cc3)ccc2O1,-0.6
C[C@H]1CN([C@@H](C)CO)C(=O)CCCn2cc(nn2)CO[C@H]1CN(C)C(=O)C1CC1,-1.5
COc1ccc(NC(=O)N(C)C[C@H]2Oc3c(NC(=O)Nc4ccccc4)cccc3C(=O)N([C@@H](C)CO)C[C@H]2C)cc1,-0.4
CC(C)NC(=O)N(C)C[C@@H]1Oc2ccc(NC(=O)C3CC3)cc2C(=O)N([C@@H](C)CO)C[C@@H]1C,-1.2
C[C@@H]1CN([C@H](C)CO)C(=O)c2cc(NC(=O)C3CCCCC3)ccc2O[C@@H]1CN(C)CC1CC1,-1.6
C[C@@H]1CCCCO[C@@H](CN(C)S(=O)(=O)c2ccc(F)cc2)[C@H](C)CN([C@H](C)CO)C(=O)c2cc(NS(=O)(=O)c3ccccc3)ccc2O1,0.9
